From PubChem BioAssay
Sfp PPTase inh: blocks B. subtilis Sfp PPTase activity; Q9F4F7; Biochemical Sfp PPTase activity, qHTS; Potency, µM, without a hit: max response, negative = inhibition, most hits filed as inhibitors; actives 3.5% (n = 310,000); AID 1490; active means well fitted inhibition curve with a large enough effect; inconclusive means small, poorly fitted or top-dose-only effect, or another doubt; inactive means no such curve, though single readings can be large or run the other way;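 further: the enzyme is Sfp with the accession as filed and its product quenches rhodamine fluorescence; potency means the concentration at half of the fitted maximal effect; 0% = enzyme reaction without inhibitor and -100% = no enzyme wells; top concentration of the series not given in the record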
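Fluorescence-quenching assay with 15 nM Sfp, 5 uM rhodamine-CoA and 12.5 uM BHQ-2-labelled ybbR peptide in pH 7.6 Hepes/MgCl2 buffer. Enzyme was pre-incubated with compound for 15 min at room temperature. Rate was taken from the 30-min fluorescence change (525/598 nm).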
Menin MLL FP FL: inhibitors of human menin-MLL interaction, wild-type MLL peptide; 290,000 tested, under 10 active; FP activity change, % at 61.4 µM; AID 1766; Fluorescence polarization, fluorescein-MLL peptide displacement from menin; inconclusive = falling polarisation curve, or a change in total fluorescence; inactive = total fluorescence flat and polarisation flat or rising; no compound was filed as active; the % refers to the polarisation; negative = inhibition;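 further: % of control where 0% means no effect; inhibitors lower the polarisation; unlabelled MLL peptide was the positive control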
ClpP mod: qHTS Assay for Activators of ClpP. purified B. subtilis ClpP, FRET peptide cleavage, 20 min. Potency, µM (series often up to 57.5 µM), for inactives: at the highest dose activity change, negative = active. actives 1.9% (n = 340,000). AID 651965, 2013; active = well fitted falling curve with a large enough effect; inconclusive = small, poorly fitted or top-dose-only effect; inactive = no such curve, though single readings can be large or run the other way; further: potency means the concentration at half of the fitted maximal effect; the source files actives as falling curves though it sought activators and does not explain the sign; nearly all actives have a fitted effect of over 65% in size; many hits overshoot -100%
Target sequence (P80244 whole entry, looked up): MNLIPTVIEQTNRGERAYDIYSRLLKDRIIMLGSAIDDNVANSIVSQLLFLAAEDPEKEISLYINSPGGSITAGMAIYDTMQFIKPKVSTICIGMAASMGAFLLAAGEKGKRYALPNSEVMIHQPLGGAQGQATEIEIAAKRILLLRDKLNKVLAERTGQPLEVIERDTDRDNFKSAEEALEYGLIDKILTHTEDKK
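ClpP 10 microg/mL final, pH 8 Tris/KCl buffer with BSA, glycerol, Tween-20; compound pinned in; FRET-FV substrate; RT 20 min; Ex320/Em430; ΔFRET vs ADEP 5.8 microM, DMSO, no enzyme.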
TRPV1 potentiator: potentiators of human vanilloid receptor 1 (TRPV1); Q8NER1; TRPV1-expressing cells, Fluo-8 calcium influx, capsaicin EC20 potentiation; host cell line not named in the record; control for the full effect not named in the record; potentiation, % at 8.33 µM; actives 0.02% (n = 320,000); active means potentiation above 80%; inconclusive means 30% to 80%; inactive means below 30%; further: 0% is about no effect
Target sequence (Q8NER1 whole entry, looked up): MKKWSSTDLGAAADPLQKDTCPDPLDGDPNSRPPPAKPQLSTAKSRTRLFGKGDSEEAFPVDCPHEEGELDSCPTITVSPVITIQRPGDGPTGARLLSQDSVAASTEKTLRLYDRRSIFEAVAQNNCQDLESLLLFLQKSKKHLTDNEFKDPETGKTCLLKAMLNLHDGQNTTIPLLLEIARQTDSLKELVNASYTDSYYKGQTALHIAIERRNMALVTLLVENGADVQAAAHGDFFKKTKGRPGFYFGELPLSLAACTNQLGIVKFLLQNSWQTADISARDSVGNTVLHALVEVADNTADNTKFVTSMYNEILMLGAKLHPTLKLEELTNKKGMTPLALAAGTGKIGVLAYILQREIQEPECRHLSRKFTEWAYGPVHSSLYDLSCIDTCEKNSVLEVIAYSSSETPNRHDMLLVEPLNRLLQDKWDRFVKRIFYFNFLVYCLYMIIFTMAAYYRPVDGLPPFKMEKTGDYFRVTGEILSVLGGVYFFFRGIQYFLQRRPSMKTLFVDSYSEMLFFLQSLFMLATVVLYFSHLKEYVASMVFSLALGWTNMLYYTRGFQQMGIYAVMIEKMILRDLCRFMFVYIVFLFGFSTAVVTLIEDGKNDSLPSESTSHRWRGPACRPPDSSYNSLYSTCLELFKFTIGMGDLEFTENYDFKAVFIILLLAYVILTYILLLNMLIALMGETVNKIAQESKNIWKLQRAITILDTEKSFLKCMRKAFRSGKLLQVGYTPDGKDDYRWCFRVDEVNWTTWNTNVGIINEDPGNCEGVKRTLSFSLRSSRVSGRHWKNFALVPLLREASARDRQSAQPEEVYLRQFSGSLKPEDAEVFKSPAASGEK
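Fluo-8 calcium influx in TRPV1-expressing cells, kinetic read (ex 480/em 520 nm). Compound added and read 3 min for agonist activity, followed by capsaicin at EC20 final and 2 min further read for enhancement.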
D2 PAM: potentiates the human D2 dopamine receptor allosterically | P14416 | DiscoveRx D2 beta-arrestin cells, luminescence, 90 min; 100% = 57 uM dopamine signal | potentiation, % (concentration not given with the values) | actives 0.23% (n = 360,000); active = potentiation of 50% or more; inconclusive = 30% to 50%; inactive = 30% or less;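 further: compound concentration not given in the record; tested on top of an EC20 dose of dopamine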
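PathHunter beta-arrestin assay in DiscoveRx D2 cells. Compounds were added with an EC20 of dopamine (50 nM final) for 90 min at 37 deg C. Luminescence was read 1 h after detection reagent, with 57 uM dopamine as the EC100 control.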
gsp antagonist: antagonizes gsp, the McCune-Albright syndrome mutation; actives 0.4% (n = 340,000); Potency, µM (highest dose often 76.9 µM), inactives show top-dose activity change, negative = inhibition, usual class: inhibitors; gsp-mutant cells, cAMP HTRF, 30 min; control for the full effect not named in the record; active = falling curve of any shape with a large fitted effect; inconclusive = falling curve, mostly with a smaller effect; inactive = flat or rising curve; cell line not stated here;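 further: intracellular cAMP measured with PDE inhibitor Ro 20-1724 present during compound exposure; potency means the concentration at half of the fitted maximal effect; on the % scale 0 is the no-effect control and ±100 the full control effect; nearly all actives have a fitted effect of over 65% in size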
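Measurement of cellular cAMP by homogeneous time-resolved fluorescence following a 30 min compound exposure at 37C. The PDE inhibitor […] was present throughout; the assay buffer was DPBS with 0.05% BSA and 0.005% Tween 20.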
gsp agonist: agonists of gsp mutant (McCune-Albright syndrome) | gsp mutant cells, cAMP HTRF, 30 min; control for the full effect not named in the record | Potency, µM (doses to about 76.9 µM), for inactives: at the highest dose activation (cAMP increase), actives largely listed as activators | actives 0.13% (n = 340,000) | AID 624287; active = well fitted activation curve with a large enough effect; inconclusive = small, poorly fitted or top-dose-only effect, or another doubt; inactive = no such curve, though single readings can be large or run the other way; cell line not stated here;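 further: phosphodiesterase inhibitor Ro 20-1724 added with compounds to block cAMP breakdown; potency means the concentration at half of the fitted maximal effect; nearly all actives have a fitted effect of over 60% in size; about a fifth of the inactives were tested at one dose only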
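Cells stably selected in G418 were plated at 2000/well, grown 16-24 hr, then given compounds in DMSO with the PDE inhibitor […] (300 uM solution added) for 30 min at 37C; cAMP was read by HTRF.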
The depositor's hits bear a star; ? = inconclusive; · = no result given; & = joins results of further samples; [ ] = remark or other dose.

SMILES | Sfp PPTase inh | Menin MLL FP FL | ClpP mod | TRPV1 potentiator | D2 PAM | gsp antagonist | gsp agonist
Cc1ccc(NC(=O)c2ccccc2)cc1 | 21% | 2.2 | 3.5% | -6 | -4 | 4% | 26%
CC1C/C(=C/c2ccco2)C(=O)/C(=C/c2ccco2)C1 (stereo not given) | ? | ? | · | 9 | · | · | ·
Nc1[nH]nc2nc(N3CCOCC3)nc(-c3ccccc3)c12 | -8% | 0.4 | -0.5% | -6 | -19 | 1% | -38%[inhibitor]
CC(C)(C)C(=O)NC(=S)Nc1ccc(C(F)(F)F)cc1 | -29% | 0.7 | -1.5% | -35 | -12 | 2% | -3%
Cc1nnc(-c2cnn(-c3ccccc3)c2N)n1Cc1ccncc1 | -1% | 0.4 | -0.2% | 5 | -1 | -12% | -31%[inhibitor]
CCN(C(=O)COC(=O)c1cccn1C)C1CCS(=O)(=O)C1 (stereo not given) | -1% | 2.3 | · | 6 | -2 | 12% | -31%[inhibitor]
O=C(NC(=S)N1CCCC1)c1cccc([N+](=O)[O-])c1 | 2% | · | 1.8% | -6 | -7 | 8% | -15%
CC1=C(C(=O)N(C(C)C)C(C)C)CC(CC(=O)NCCCCc2ccccc2)C(=O)N1Cc1ccccc1 (stereo not given) | · | · | -1.6% | · | -3 | · | 2%
CCc1cccc(CC)c1C(OC(C)=O)c1cccnc1 (stereo not given) | · | · | 1.4% | · | -5 | 0% | -39%[inhibitor]
CCOc1ccc(NC(=S)NC(=O)Cc2ccccc2)cc1 | 4% | -0.6 | 0.1% | 11 | -5 | -3% | -19%
COc1ccc(Cl)cc1NC(=S)N1CCN(C(=O)C2CCCO2)CC1 (stereo not given) | -19% | -3.8 | 0.3% | 3 | -9 | 6% | -4%
c1ccc(-c2ccc(-c3ccccn3)nn2)nc1 | 16µM* | 0.9 | · | -4 | · | · | ·
O=S(=O)(Cc1ccccc1Cl)NCCOc1ccccc1 | -3% | 5.0 | -6.8% | -18 | -1 | 1% | 10%[15.4 µM]
COC(=O)c1cc(C(=O)OCC(=O)NC2CCCCCCC2)cc([N+](=O)[O-])c1 | · | · | 0.3% | -14 | 6 | -7% | 11%
Cc1ccc(C(=O)Nc2ccc(C(=O)N/N=C/c3c[nH]c4ccccc34)cc2)cc1 | 13% | 1.2 | · | -23 | -5 | ? | 5%[15.4 µM]
O=C1N/C(=N/S(=O)(=O)Cc2ccccc2)S/C1=C/c1ccc2c(c1)OCO2 | -10% | 5.0 | -8.3% | 9 | -16 | ? | -3%
Cc1cccc(NC(=O)/C(C#N)=C/c2ccccc2Cl)n1 | 15% | -1.0 | -3.9% | 3 | -8 | -2% | 23%
O=C(OCc1cncs1)c1ccccc1 | 3% | -3.2 | · | -6 | -5 | 7% | 3%
CCCN(C(=O)c1ccc(N(C)S(=O)(=O)c2ccc(C)cc2)cc1)C1CCS(=O)(=O)C1 (stereo not given) | · | · | -2.2% | 27 | -3 | -3% | -1%
COc1ccc(NC(=O)c2cc(=O)c3ccccc3o2)cn1 | 8% | ? | 1.6% | -17 | -9 | -2% | 7%
Brc1cccc(-c2nnco2)c1 | -2% | 0.9 | 0.1% | -14 | -1 | 4% | -3%
CCCc1[nH]nc2c1C(c1cc(OC)ccc1F)C(C#N)=C(N)O2 (stereo not given) | -5% | -1.7 | -2.6% | 7 | 0 | 10% | 22%
COC(=O)c1c(-c2ccccc2Cl)noc1-c1cnc(N)nc1C(F)(F)F | 5% | 2.3 | · | 1 | 5 | 16% | -1%[15.4 µM]
Cc1c(OC(C)C(=O)NC(Cc2c[nH]c3ccc(O)cc23)C(=O)O)ccc2c1oc(=O)c1ccccc12 (stereo not given) | -27% | -5.4 | 5.2% | 2 | -25 | -10% | ·
N#Cc1cc([N+](=O)[O-])ccc1Oc1cccc(/C=N/NC(=O)c2ccc(Cl)cc2)c1 | ? | -0.3 | 0.3% | -4 | 8 | -6% | -13%
SMILES | Sfp PPTase inh | Menin MLL FP FL | ClpP mod | TRPV1 potentiator | D2 PAM | gsp antagonist | gsp agonist
CCn1c(CSc2nc3ccccc3s2)nnc1SCC(=O)c1ccc(O)c(O)c1 | 3% | 2.0 | -0.6% | -12 | 3 | ? | ?
COc1cc(C2C(C#N)=C(N)Oc3c2oc(CO)cc3=O)cc(OC)c1OC (stereo not given) | -7% | -1.5 | -2.0% | -3 | -2 | 3% | 11%
Cc1ccc(/C=C2\CCOC2=O)cc1 | 20% | -0.6 | · | -10 | -8 | 6% | -13%[15.4 µM]
COc1ccc(N2CC(O)(c3ccc(F)cc3)[N+]3=C2CCCC3)cc1 (stereo not given) | 9% | -1.3 | -11% | 0 | -29 | 6% | -4%[15.4 µM]
COc1ccc(C2/C=C\CC(NC(=O)OCC3c4ccccc4-c4ccccc43)CC(=O)N2Cc2ccccc2F)cc1 (stereo not given) | 5% | -1.4[44.5 µM] | -1.5% | · | -4 | -6% | ·
Cc1ccc(S(=O)(=O)N2CC3(O)CN(C(=O)OC(C)C)N(C(=O)OC(C)C)CC3(OC(=O)NCc3ccccc3F)C2)cc1 (stereo not given) | · | · | 1.8% | · | 6 | · | -29%
Cc1cc(C)n2nc(SC(C)C(=O)N(C)C3CCCCC3)nc2n1 (stereo not given) | · | · | 0.2% | · | -10 | 0% | -3%[15.4 µM]
Cc1cccc2c1NC(=O)C2=O | · | · | -1.0% | · | -20 | 13% | ?
CCOCC(=O)Nc1cc(C(=O)Nc2ccccc2)ccc1Cl | 9% | 5.2 | -5.9% | -10 | -3 | -9% | 1%
CC(=O)Nc1sc(NC(=O)c2ccc(Cl)cc2)nc1-c1cccs1 | 1% | 1.3 | 1.4% | 1 | -16 | 4% | -4%[15.4 µM]
Cc1cccc(C(=O)N2CCC(N3CCC(C(=O)N4CCOCC4)CC3)CC2)c1 | 5% | 3.2 | -4.8% | -5 | -14 | 0% | -23%
Cc1ccccc1Cn1nc(C)c(NC(=O)c2cc(CC(C)C)on2)c1C | -3% | 1.7 | -0.4% | 2 | -7 | -15% | 5%[15.4 µM]
c1ccc(Cc2ccc(OCCn3ccnc3)cc2)cc1 | 12% | 3.4 | 1.8% | -9 | 3 | -7% | -2%
COc1ccc(CC(=O)OCC(=O)Nc2cccc(Cl)c2)cc1 | 14% | -5.8 | · | 2 | -5 | -4% | 2%[15.4 µM]
Nc1ccc(S(=O)(=O)Nc2nccc(/C=C/c3ccc(Cl)cc3Cl)n2)cc1 | 4% | 15 | · | 2 | 2 | 3% | 0%[15.4 µM]
CS(=O)(=O)c1ccc(Cl)c(NC(=O)CCl)c1 | -15% | -0.4 | -3.3% | 5 | 0 | 3% | 1%[15.4 µM]
Cc1ccc([N+](=O)[O-])cc1NC(=O)c1ccc(-c2ccccc2)cc1 | -8% | 0.2 | -3.0% | 0 | -10 | ? | -16%
Cc1cc(C)n(-c2nnc(SCC(=O)NC3CCCC3)c3ccccc23)n1 | 1% | 2.2 | 1.3% | 5 | -17 | -7% | 25%
CC(=O)OC1CCC2(C)C(=CCC3C2CCC2(C)C3CC3ON=C(C)C32)C1 (stereo not given) | · | · | · | · | -1 | 6% | 7%
COCC(=O)Nc1ccc(C)c(Cl)c1 | -5% | 4.3 | -1.1% | -18 | -5 | 1% | -36%[inhibitor]
NNC(=O)Cn1c(-c2ccccn2)nc2ccccc21 | 2% | -0.3 | 0.1% | 1 | -1 | 1% | -12%[15.4 µM]
O=C(CSc1nc(SCC(=O)NCc2ccccc2)n(-c2ccccc2)n1)NCc1ccccc1 | -7% | 4.6 | 0.0% | 1 | 1 | -4% | -8%
Cc1ccc(S(=O)(=O)N2CCC(C(=O)N[C@H](C(=O)N3CCN(C)CC3)C(C)C)CC2)cc1 | 12% | 1.6 | -0.6% | 2 | -8 | 11% | ?
COc1ccc(N=C2SC(C(=O)O)CC(=O)N2C)cc1 (stereo not given) | 18% | -1.3 | 3.1% | 8 | -6 | 5% | -13%
COc1ccc(C2=NCCn3nc4ccccc4c32)cc1 | · | · | -9.3% | ? | -10 | 4% | ·
SMILES | Sfp PPTase inh | Menin MLL FP FL | ClpP mod | TRPV1 potentiator | D2 PAM | gsp antagonist | gsp agonist
COC(=O)c1cc(-c2c(C)oc3cc(OC(C)C)ccc3c2=O)c(C)o1 | -14% | -0.3 | 0.6% | 5 | -3 | -31% | -40%[inhibitor]
O=C(COC(=O)/C=C/c1ccccc1Cl)NCc1ccccc1 | 20% | 6.7 | 0.6% | -15 | -5 | 0% | -5%[15.4 µM]
CCCNC(=O)N1CCC(n2nccc2NC(=O)CCOc2ccccc2)CC1 | 15% | · | -4.8% | -4 | ? | 3% | 20%
COC(=O)Cc1ccc(NC(=O)c2ccc3c(c2)C(=O)N(Cc2ccco2)C3=O)cc1 | 10% | · | -0.5% | 11 | -12 | 2% | 6%[15.4 µM]
CC(NC(=O)[C@@H](NC(=O)[C@@H]1Cc2ccccc2CN1)C(C)C)c1ccccc1 (stereo not given in full) | 19% | -2.7 | 0.4% | 6 | -9 | 3% | -3%
COc1cccc(C(C[N+](=O)[O-])c2c(C)[nH]n(-c3ccccc3)c2=O)c1 (stereo not given) | 28µM* | · | · | 0 | -8 | 1% | -6%[15.4 µM]
CCOc1ccc(OCCN2C(=O)NC3(CCCc4ccccc43)C2=O)cc1 (stereo not given) | -2% | 1.2 | -4.6% | -1 | -6 | -10% | -2%
COc1ccc(NC(=O)CN2CCN(Cc3ccccc3)CC2)cc1 | 6% | 0.4 | · | 1 | -8 | 1% | -39%[inhibitor]
COC(=O)c1ccc(-c2noc(CN3C[C@H]4CC[C@H]3C4)n2)cc1 | -4% | -0.8 | 1.6% | 8 | -1 | 9% | -71%[inhibitor]
CCN(CC)c1ccc(NC(=O)COC(=O)C23CCC(=O)N2c2ccccc2S3)cc1 (stereo not given) | 63µM* | -0.7 | 2.0% | 8 | 9 | ? | -38%[inhibitor]
c1nc(NCC2CCCO2)c2[nH]cnc2n1 (stereo not given) | · | · | -2.3%&-1.7%&1.6% | · | 2 | 2% | 0%
CCC1CN(C(=O)N2CCC(C(=O)NCc3cc(OC)c(OC)c(OC)c3)CC2)c2ccccc2O1 (stereo not given) | 12% | · | 0.0%&0.8% | -13 | -5 | -10% | -27%
NC(N)=N/N=C/c1ccc(Cl)c([N+](=O)[O-])c1 | 7% | 1.0 | · | -3 | -11 | -7% | 2%[15.4 µM]
